Screening data as filed in PubChem.
AID504770 = E. coli YBA685 growth inhibition, screen for V. cholerae RctB inhibitors. E. coli YBA685 rctB-dependent plasmid, OD600 growth, 3 h; hits give low values. z-score (concentration not given with the values). hit rate 0.27% among 130,000. AID 504770;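 active means z-score under -2 on both plates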;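 further: wells of about 30 µL received 100 nL stock; score is relative to mean and SD of the test wells; the first replicate is given; strong numbers were not always called active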
CapD inh = inhibitors of Bacillus anthracis CapD enzyme | purified CapD enzyme, fluorescence intensity read-out; hits give low values; some hits fall short of the stated cut | z-score (test concentration not listed) | hit rate 0.23% among 140,000;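 active means z-score under -4 in either of two replicates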;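 further: stock transfer was 100 nL into about 40 µL; score is relative to mean and spread of the plate; one replicate is shown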
* hit, by the source's call; . = no result given. No enrichment for hits; 0.37% or so of the library scored in one or more.

Sample of the layout (2 entries):
Compound | AID504770 | CapD inh
Cc1ccc2c(ccn3cc4c(c(=O)n(C)c(=O)n4C)c23)c1 | -0.1 | 14
CCOc1ccc(N2C(=O)C(C)SC23C(=O)N(CN2CCN(c4ccc(F)cc4)CC2)c2ccccc23)cc1 (stereo not given) | . | 0.2

The whole of this part, from the first entry:
Compound | AID504770 | CapD inh
Cc1ccc2c(ccn3cc4c(c(=O)n(C)c(=O)n4C)c23)c1 | -0.1 | 14
CCOc1ccc(N2C(=O)C(C)SC23C(=O)N(CN2CCN(c4ccc(F)cc4)CC2)c2ccccc23)cc1 (stereo not given) | . | 0.2
O=C(/C=C/c1nc2ccccc2o1)N1CCN(Cc2nc3ccccc3s2)CC1 | -0.2 | .
N#CC1=C(N)OC2=C(C(=O)CCC2)C1c1ccc(C2C(C#N)=C(N)OC3=C2C(=O)CCC3)cc1 (stereo not given) | . | 0.85
CC12CC[C@H]3[C@@H](CCC4(O)C[C@H](O)CCC34/C=N\NC(=O)c3cccc(NC(=O)c4cccc(Br)c4)c3)C1(O)CCC2C1=CC(=O)OC1 (stereo not given in full) | . | -0.05
CCOC(=O)C1CCN(c2ccc(S(C)(=O)=O)cc2NC(=O)c2ccc(C(F)(F)F)cc2)CC1 | . | -0.44
CN(C(=O)c1ccc(Br)cc1)C1CCCCC1 | 0.05 | .
CCCc1nc(SCC(=O)N(CC)CC)c2ccccc2n1 | 0 | .
N#Cc1c(Cl)cccc1Oc1cccc(S(=O)(=O)NCc2ccc3c(c2)OCO3)c1 | . | -0.33
CC(NC(=O)c1ccc(C(C)(C)C)cc1)c1ccccc1 (stereo not given) | 1.5 | 0.34
CC(C)(C)OC(=O)N1CCN(c2nc(-c3ccccc3)c3cc([N+](=O)[O-])ccc3n2)CC1 | . | 0.66
Cc1ccc(C=N/C(=N\NC(=O)c2ccccc2)c2ccccc2)o1 | -0.25 | .
CC1=NC2(CCN(S(=O)(=O)c3ccc(Cl)cc3)CC2)N=C1c1cccc(C(F)(F)F)c1 | . | -0.12
CCOc1ccc(NC(=S)NCCCO)cc1 | 0 | .
CSc1nc2[nH]c(=O)cc(O)c2s1 | -0.2 | -2.5
CCN1CCN(C(=O)c2cccc(OC(F)F)c2)CC1 | 1.4 | .
C=CCn1c(NS(=O)(=O)c2ccccc2)c(C#N)c2nc3ccccc3nc21 | 0 | .
CCC(C)C(=O)N1c2ccccc2C(C)(c2ccccc2)CC1(C)C (stereo not given) | . | -0.21
CCC(CC)N=C1NS(=O)(=O)c2ccccc21 | -0.9 | -0.81
COc1cc(C(F)(F)F)nc2ccc(C)c(NC(=O)c3ccccc3)c12 | 0.85 | -0.3

Compound | AID504770 | CapD inh
O=C(NCCCn1cccc1)c1c(F)cccc1F | 0.4 | 1.1
Cc1cc(=O)n(-c2ccc([N+](=O)[O-])cc2)[nH]1 | . | -1.2
CNc1ccccc1C(C)(C)c1[nH]ncc1-c1ccc(F)cc1 | -0.3 | 2.9
COC(=O)C(Cc1c[nH]c2ccccc12)NC(=O)C(Cc1ccccc1)NS(=O)(=O)c1ccc(C)cc1 (stereo not given) | . | -0.84
CC1(C)C2CCC1(C(=O)O)C(=O)C2 (stereo not given) | 1.8 | -0.17
NC(=O)c1ccsc1NC(=O)CSc1ncnc2sc3c(c12)CCCC3 | 1.5 | .
Cc1cc(C)cc(OCC(=O)N2CCCC2)c1 | -0.9 | 0.045
CCN(CC)S(=O)(=O)c1ccc(NCC(=O)Nc2ccc(S(=O)(=O)N(C)C)cc2)cc1 | 0 | .
O=c1[nH]c(=O)c2nc3cc(C(F)(F)F)ccc3nc2[nH]1 | -1.6 | 2.5
COc1cc(C2C3=C(CC(C)(C)CC3=O)OC3=C2C(=O)CC(C)(C)C3)ccc1OC(=O)N(C)C | . | -0.025
O=C(Nc1ccc(Cl)cc1)Nc1ccc(N2CCN(c3ncccc3C(F)(F)F)CC2)nc1 | -0.05 | 19
O=S(=O)(/C=C/c1ccccc1)NCc1ccco1 | -1 | -0.03
CC(C(=O)Nc1ccc(C#N)cc1)N1CCN(S(=O)(=O)/C=C/c2ccccc2)CC1 (stereo not given) | -0.35 | .
C=CCn1c(=N)n(CC(=O)C(C)(C)C)c2ccccc21 | -0.3 | 0.14
CN1C(=O)/C(=N\N=c2\sc3ccccc3n2C)c2ccccc21 | 0.65 | .
COc1cccc(C(=O)Nc2ccc(O)c(-c3nc4ccccc4s3)c2)c1 | . | 0.33
CC(Sc1nc2ncccc2[nH]1)C(=O)Nc1ccc(F)cc1 (stereo not given) | -0.4 | 0.61
NC(=O)CN1CCC(N2CCCCC2)CC1 | -0.25 | .
CCN(CC)C(=O)C1CCCN(c2ncnc3c2cnn3-c2cccc(C)c2)C1 (stereo not given) | . | -0.26
CC(C(=O)Nc1ccccc1)n1nc(-c2ccccc2)ccc1=O (stereo not given) | -0.9 | 1.9

Structural class, those above containing a furan ring, fused or not
Compound | AID504770 | CapD inh
Cc1ccc(C=N/C(=N\NC(=O)c2ccccc2)c2ccccc2)o1 | -0.25 | .
O=S(=O)(/C=C/c1ccccc1)NCc1ccco1 | -1 | -0.03

Next results follow:
Compound | AID504770 | CapD inh
CCCn1c(C)cc(C(=O)COC(=O)c2ccc(C#N)cc2)c1C | 2.2 | .
CCOc1ccc2c(c1)C(=NO)c1cc(OCC)ccc1-2 | . | -0.78
COC(=O)c1sc(OC)c(C(F)(F)F)c1O | -0.3 | -1.1
c1ccc2c(c1)CCCC2Nc1ncnc2c1nc1n2CCCCC1 (stereo not given) | -0.1 | -0.21
Cc1cc2oc(=O)cc(C)c2c(=O)[nH]1 | -0.25 | .
N#CCS(=O)(=O)c1ccc(Cl)c(Cl)c1 | . | 0.2
O=C(/C=C/c1ccco1)OCC(=O)c1cc2c3c(c1)CC(=O)N3CCC2 | -0.1 | .
O=C(c1ccco1)N1CCN(c2c3c(nc4cc(-c5cccc(F)c5)nn24)CCCC3)CC1 | -0.2 | .
Cc1cc(=O)[nH]c2sc(C(=O)N3c4ccccc4CC3C)c(N)c12 (stereo not given) | -0.1 | -0.28
N#Cc1nc(-c2ccccc2F)oc1NC1CC1 | 1 | 72
CCOC(=O)c1ccc(NC(=O)CCC(=O)O)cc1 | . | 0.27
O=C(CSc1nc2ccccc2n1S(=O)(=O)c1ccccc1)Nc1ccc([N+](=O)[O-])cc1Cl | . | -0.12
COc1cc(-c2nc3sc4c(c3c(=O)[nH]2)CCCC4)ccc1OCCOCCOc1ccccc1C | . | 2.1
c1ccc(CN2CCN(c3ncnc4c3cnn4-c3ccccc3)CC2)cc1 | -0.3 | .
Cc1ccnc(NC(=O)c2cc(-c3ccc(C)c(C)c3)n[nH]2)c1 | -0.25 | -0.17
O=c1[nH]cnc2ccccc12 | -0.4 | .
CN(N/C(=C/C#N)NC(=O)NC(C)(C)C)c1ncc(C(F)(F)F)cc1Cl | . | -0.6
C=CCNC(=S)/N=c1\sccn1C | -0.8 | .
CN1CCCCC1CCN1c2ccccc2Sc2ccc(S(C)=O)cc21 (stereo not given) | . | -0.57
COC(=O)c1ccc(COc2ccccc2/C=N/O)o1 | 0.2 | -1.2

Compound | AID504770 | CapD inh
CCOC(=O)c1cc(-c2ccccc2)[nH]c1N1CCCC1 | -0.35 | 6.1
CC1CN=C(c2ccccc2N)N1 (stereo not given) | 0.4 | 46
Cc1ccc(N=Cc2ccco2)c(C)c1 | 0.1 | 0.22
CCC1C[N+]2(C)CCc3cc(OC)c(OC)cc3C2CC1=O (stereo not given) | -0.5 | 1.6
Cc1cc(NC(=O)c2cc(C(C)(C)C)oc2C)no1 | 1.7 | -0.34
Cc1c(/C=N/NC(=O)COc2ccc(-c3ccccc3)cc2)cc(C#N)n1C | 0.3 | .
COCCOC(=O)c1c(C)oc2ccc(OCC(=O)c3ccc(Br)cc3)cc12 | . | -0.21
CC(C)NC(=S)NCc1cnn(C)c1 | -0.85 | -0.03
Cc1cc(C)cc(CC(C(=O)O)C(C)C(=O)NCc2ccccc2)c1 (stereo not given) | -0.45 | -0.21
CC1=NC2SC=C(c3ccccc3Cl)N2C(=O)C1 (stereo not given) | . | 0.075
O=C(Nc1ccc(F)cc1)c1ccccc1NC(=S)Nc1cccc(C(F)(F)F)c1 | . | 2.8
COc1cc(SC)ccc1C(=O)OCC(=O)N(C1CCCCC1)C1CCS(=O)(=O)C1 (stereo not given) | -0.7 | .
CNC(=O)Cn1ncc2c(C)n(Cc3ccc(C)cc3)c(C)c2c1=O | -0.6 | 2.4
O=c1oc2ccccc2n1CCc1nc(-c2ccc(C(F)(F)F)cc2)no1 | -0.25 | -0.76
COC(=O)c1c(-c2ccccc2)nn(-c2ccc(Cl)cc2)c1OC | 0.75 | -0.26
O=C(Nc1nccs1)c1ccc(N2C(=O)C3CCCCC3C2=O)cc1 (stereo not given) | . | -0.15
CC(C)(C)c1cc(CN(CCO)CCO)cc(C(C)(C)C)c1O | . | 0.41
Cc1ccc(-c2c(C(=O)Nc3cc(-c4nc5ncccc5o4)ccc3C)oc(=O)c3ccccc23)cc1 | . | 0.49
COc1ccc(N2C(=O)/C(=C/c3ccc(N(C)C)c([N+](=O)[O-])c3)C(=O)NC2=S)cc1 | . | -1.6
COc1cccc(NS(=O)(=O)c2csc(C(N)=O)c2)c1 | 0.1 | -0.42

Compound | AID504770 | CapD inh
CCCCS(=O)c1sc(C(=O)OCC)c2c1C(=O)CCC2 (stereo not given) | -0.3 | -0.22
N#Cc1c(N)nc2c(c1-c1ccccc1Cl)CCC2 | 1.2 | 73
O=C(CN1CCc2ccccc2C1)NCCCc1ccccc1 | 0.45 | .
CCNc1c(NS(=O)(=O)CC)c(=O)oc2ccccc12 | 2.8 | -0.95
Cc1cccc(-c2nnc(SCC(N)=O)n2C2CCCCC2C)c1 (stereo not given) | -0.65 | .
Clc1ccccc1CSc1nnc(COc2ccccc2)n1Cc1ccco1 | -0.05 | .
CCOc1ccc(C2C(C#N)=C(SCC(=O)Nc3ccc(NC(C)=O)cc3)NC3=C2C(=O)CCC3)cc1 (stereo not given) | . | 6.2
Oc1ccc(N=Cc2ccccc2)cc1-c1nc2ccccc2s1 | 0.1 | -0.91
OC(c1ccccc1)(c1ccccc1)C1CCN(C(=S)Nc2ccccc2)CC1 | -0.35 | -0.74
Cc1ccccc1CCOC(=O)N1CCN(c2ccc([N+](=O)[O-])cc2)CC1 | . | -0.73
CC1(C)CC(OC(=O)CC#N)CC(C)(C)N1 | 1.8 | 0.045
Cc1ccc(C(C)C)c(OCC(N)=O)c1 | 1.2 | -0.7
COc1cccc(/C=C2\C(=O)NC(=O)N(c3cccc(OC)c3)C2=O)c1 | -0.55 | -0.045
CNC(=O)COC(=O)c1cccnc1Nc1ccccc1F | -0.6 | .
COc1ccc(CN2CCCCC2CO)cc1Br (stereo not given) | -0.25 | 0.15
O=C(OCCCn1c(=O)[nH]c2ccccc21)c1ccc2c(c1)C(=O)N(Cc1ccco1)C2=O | 0.1 | .
Nc1n[nH]c(-c2ccc(Br)cc2)n1 | -0.85 | -0.15
N#CS/C=C/C(=O)c1ccccc1 | -2.7* | -0.72
CCN(CC)c1ccc(C=C2C(=O)OC3(CCCC3)OC2=O)cc1 | -0.1 | .
O=C(O)COc1ccc(CN2CCCC2)cc1 | 0.95 | .

Record cards, as listed above. Screens in order: AID504770, CapD inh
CC1(C)CC(OC(=O)CC#N)CC(C)(C)N1 as listed: 1.8, 0.045
CCCCS(=O)c1sc(C(=O)OCC)c2c1C(=O)CCC2 (stereo not given) as listed: -0.3, -0.22
O=C(CN1CCc2ccccc2C1)NCCCc1ccccc1 as listed: 0.45, .

Next part
Compound | AID504770 | CapD inh
Cc1cc(C)c2cc(C(=O)NCCN3CCCCC3)[nH]c2c1 | 2.4 | 3.6
CCOC(=O)c1c(NC(=O)N2CCOc3ccc(Cl)cc32)sc2c1CCCC2 | -0.25 | 5.6
CC1CCN(C(=O)c2cccc(N3C(=O)C4C5C=CC(C5)C4C3=O)c2)CC1 (stereo not given) | 0.4 | 0.59
CCCCN1CN=C(Nc2nc(C)c3ccccc3n2)NC1 | -0.4 | -0.75
Cc1ccc(-n2nnc(C(N)=O)c2N)cc1 | -1.1 | .
O=C1Nc2ccc(S(=O)(=O)NCCO)c3cccc1c23 | 0.4 | 40
COc1ccc(CNC(=O)c2ccc(N3CC4CC(C3)c3cccc(=O)n3C4)c(N)c2)cc1 (stereo not given) | 0.65 | 1.2
Nc1nc2[nH]c(=O)[nH]c(=O)c2s1 | 2.4 | -0.06
CN(C(=O)CSc1nnc(-c2ccccc2)o1)c1ccccc1 | -0.15 | .
CCc1ccccc1N/C=C1/CCCCC1=O | -1.2 | -2.4
COc1ccc(CCNC(=O)c2cc(C(F)(F)F)cc(C(F)(F)F)c2)cc1OC | . | -0.61
COc1ccc(-c2nc(CSCC(=O)NCc3ccc4c(c3)OCO4)c(C)o2)cc1 | -1.1 | 0.25
COc1ccc(-c2ccc(Cc3cn4ccsc4n3)o2)cc1OC | -0.55 | .
CS(=O)(=O)N(CC(N)=O)Cc1ccc(F)cc1 | -0.85 | -0.35
O=C1CS/C(=N\NC(=S)NCc2ccco2)N1 | 0.1 | .
O=C1c2ccc([N+](=O)[O-])cc2C(=O)N1C1C(=O)N(c2ccc(Br)cc2)C1c1cccs1 (stereo not given) | . | -0.56
O=C(Nc1cccc(-c2ncon2)c1)c1ccc(Cl)cc1 | 0.05 | -0.035
CC(C)(C)C(=O)COC(=O)[C@@H]1CC(O)CN1S(=O)(=O)c1ccc(F)cc1 (stereo not given in full) | 0.15 | .
COc1ccc(C(=O)c2c(C)oc3ccc(OC)cc23)cc1 | -0.75 | 0.045
O=C(NCCN1CCOCC1)c1cnn2c(C(F)F)cc(-c3ccccc3)nc12 | -1.2 | .
COc1cccc(Oc2ccc(OC)cc2C(=O)NN)c1 | -0.25 | 0.12
CCN1CCN(C(=O)c2ccc(CNS(=O)(=O)c3cccc(OC)c3)cc2)CC1 | -0.05 | 0.1
COc1cccc(N2CCN(C(=O)c3cnc(N4CCCC4)nc3)CC2)c1 | -0.4 | 1.5
